HCMV NEC inh: inhibitors of HCMV UL50-UL53 interaction, biochemical, HTRF; HCMV UL50-UL53 nuclear egress complex (human cytomegalovirus); inhibition, % (test concentration not listed); normalized percent inhibition; 0.15% of 190,000 active;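 active = both replicates at 50% or more, plus weaker picks with an unusually low signal ratio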;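 note: stock transfer was 100 nL into about 20 µL; 0% = negative control wells and 100% = wells with untagged competitor protein; inactives centre near -12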
GIV-Gai inh: inhibitors of GIV peptide binding to Galpha-i3, primary screen, biochemical, fluorescence polarization, FITC-GIV GBA peptide, rat Galphai3; 90 min; hits give low values; scaled: aluminum fluoride 0%, vehicle 100%; Guanine nucleotide-binding protein G(i) subunit alpha-3 (Rattus norvegicus), P08753; 0.42% of 210,000 active; percent of control (FP), % (concentration not given with the values);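 active = replicate mean at 85% of control or lower, very high polarization wells dropped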;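 note: wells of about 15 µL received 100 nL stock; the first replicate is given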
Target sequence (P08753 whole entry, looked up): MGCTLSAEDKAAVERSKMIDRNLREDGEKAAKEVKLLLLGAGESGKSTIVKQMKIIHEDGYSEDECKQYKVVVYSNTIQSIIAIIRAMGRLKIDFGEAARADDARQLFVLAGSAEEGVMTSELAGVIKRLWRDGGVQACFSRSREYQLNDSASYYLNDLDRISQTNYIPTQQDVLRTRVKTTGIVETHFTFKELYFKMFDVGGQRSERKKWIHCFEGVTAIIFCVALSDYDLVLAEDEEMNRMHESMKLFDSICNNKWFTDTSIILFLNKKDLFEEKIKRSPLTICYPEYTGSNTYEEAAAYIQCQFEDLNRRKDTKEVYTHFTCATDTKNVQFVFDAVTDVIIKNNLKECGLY
* = called active by the depositor; . = no result given; & = joins results of further samples.

SMILES	HCMV NEC inh	GIV-Gai inh
CCc1nc(-c2csc(S(=O)(=O)N3CCC(C(=O)Nc4cccc(C)n4)CC3)c2)no1	.	106
COc1cc(-n2cnc3cc(C(=O)NCc4ccc(C)cc4)ccc32)cc(OC)c1OC	.	108
Clc1ccc(Cc2noc(Cc3nc(-c4ccccc4)cs3)n2)cc1	.	130
COc1ccccc1-n1c(=S)sc2c(=O)n(Cc3ccco3)c(SC)nc21	.	99
CCCNC(=O)Nc1ccccc1-c1cc2ccccc2[nH]1	.	110
CC1(C)CC(=O)C2=C(C1)N(c1ccc(Br)cn1)C(N)=C(C#N)C2c1ccsc1 (configuration not stated)	.	114
CC1=C(C(=O)Nc2cccc(Cl)c2)C(c2ccc(Br)cc2)NC(=O)N1 (configuration not stated)	.	99
Cc1ccc(C(=O)N/C(=C\c2cccs2)C(=O)N2CCN(c3ccccn3)CC2)cc1C	.	102
Cn1c(=O)c2nc(SCC(=O)NC3CCCC3)n(C)c2n(C)c1=O	.	98
C=CCn1c(SCC(=O)CC(=O)OCC)nc2cc(C(=O)N3CCC(C(N)=O)CC3)ccc2c1=O	.	121
Cc1ccc(-c2cnc(Nc3cccc(C(=O)NCC4CCCO4)c3)nc2)cc1 (configuration not stated)	.	102
CC(C)(C)c1csc(-c2csc(S(=O)(=O)NC3CCCC3)c2)n1	.	102
CC(=O)N1CCN(C(=O)C2CCN(c3ncccc3-c3nc(-c4ccccc4)no3)CC2)CC1	.	104
O=C(Cn1ccc2c(SCc3ccc(F)cc3)nccc21)N1CCN(c2ccccn2)CC1	.	101
Cc1ccc(NC(=O)Cn2nc(C)c(S(=O)(=O)N3CCC(C(=O)NC4CCCC4)CC3)c2C)cc1	.	104
CCn1cc(CN2CCC(C(=O)N3CCCCC3)CC2)c2cc(OC)ccc21	.	100
Cc1ccc(-n2ccnc2SCc2nc(-c3cccc(Br)c3)no2)cc1	.	108
COc1cn(CC(=O)NCC2CCCO2)c(CN2CCCCC2)cc1=O (configuration not stated)	.	100
COc1cccc(C2=NN3C(C2)c2cccc(OC)c2OC3c2cccc(Cl)c2)c1 (configuration not stated)	.	104
Cc1cccc(C(=O)N2CCCN(Cc3noc(-c4ccccc4)n3)CC2)c1	.	102
O=c1n(CCc2ccccc2)nc2c(S(=O)(=O)N3CCCC3)cccn12	.	100
COC(=O)CN1C(c2ccc(Cl)cc2)=Nc2ccc(Br)cc2C1c1ccccc1 (configuration not stated)	.	105
Cc1ccc(C)c(-c2csc(-c3cc4ccc(O)cc4oc3=O)n2)c1	.	222
Nc1c(C(=O)NCc2ccccc2)sc2nc3c(c(-c4ccco4)c12)CCCCC3	.	105
COc1ccc(N2CCN(C(=O)CSc3nc4[nH]ncc4c(=O)n3-c3ccc(C)c(Cl)c3)CC2)cc1	.	102
O=C(CSc1nnc(-c2ccccc2)c(-c2ccccc2)n1)Nc1cc(C(F)(F)F)ccc1Cl	.	102
O=C(Nc1ccc(F)cc1)c1nnc(C2CCN(C(=O)Nc3ccc(F)cc3)CC2)s1	.	98
O=C(CSc1nc(=O)[nH]c2c1CCC2)Nc1nc2ccccc2s1	.	101
COC(=O)CSc1nc2ccc(NC(=O)c3ccccc3C(=O)N3CCOCC3)cc2s1	.	117
O=C(NCc1nc2cccnc2n1Cc1ccccc1)c1cccc(Cl)c1	.	113
CNC(=O)c1c(NC(=O)c2ccc3c(c2)OCCO3)sc2c1CCC(C)C2 (configuration not stated)	.	108
O=[N+]([O-])c1c(NCCCO)cc(N2CCN(c3cccc(Cl)c3)CC2)c2nonc12	.	96
CCNC(=O)CCc1c(C)n(C)c2cc(-c3ccccc3C)nn2c1=O	.	110
Cc1ccc(N2CC(O)(c3ccc(C)cc3)[N+]3=C2SCCC3)cc1 (configuration not stated)	.	103
Cc1ccc(CCN2CC(C(=O)NCCCN3CCC(Cc4ccccc4)CC3)CC2=O)cc1 (configuration not stated)	.	108
COc1ccccc1N1CCN(C(=O)CSc2nc3ccccc3c(=O)n2NC(=O)CCc2c[nH]c3ccccc23)CC1	.	106
CCOC(=O)C1=C(c2ccccc2)S/C(=C2/C(=S)C(C)(C)N(C(=O)C(C)C)c3cc(C)c(C)cc32)S1	.	110
COC(=O)c1ccccc1NC(=O)c1ccc(=O)n(Cc2c(F)cccc2Cl)c1	.	108
CCN(CC)S(=O)(=O)c1ccc(NC(=O)N2CCCC(C(=O)NCCC(C)C)C2)s1 (configuration not stated)	.	105
CCOC(=O)C(NC(=O)c1ccccc1)(Nc1sc2c(c1C#N)CCC(C(C)(C)C)C2)C(F)(F)F (configuration not stated)	.	112
O=C(CSc1nc2[nH]ncc2c(=O)n1-c1cccc2ccccc12)NCc1ccccc1Cl	.	104
CC(C)c1ccc(S(=O)(=O)c2cnc(N3CCC(C(N)=O)(N4CCCCC4)CC3)nc2N)cc1	.	99
Cc1nc(CN2C(=O)COc3cc(S(=O)(=O)N4CCc5ccccc5C4)c(Cl)cc32)no1	.	102
CC(C)c1ccc(CNS(=O)(=O)c2cc(-c3nc(C(C)(C)C)cs3)cs2)cc1	.	107
COc1ccc(OC)c(C2NC(=S)NC(C)=C2C(=O)Nc2cc(Cl)ccc2OC)c1 (configuration not stated)	.	111

5 entries already listed, sorted by the value under GIV-Gai inh, ascending.
smiles	GIV-Gai inh
O=[N+]([O-])c1c(NCCCO)cc(N2CCN(c3cccc(Cl)c3)CC2)c2nonc12	96
CC(C)c1ccc(S(=O)(=O)c2cnc(N3CCC(C(N)=O)(N4CCCCC4)CC3)nc2N)cc1	99
Cc1nc(CN2C(=O)COc3cc(S(=O)(=O)N4CCc5ccccc5C4)c(Cl)cc32)no1	102
CNC(=O)c1c(NC(=O)c2ccc3c(c2)OCCO3)sc2c1CCC(C)C2 (configuration not stated)	108
CCOC(=O)C(NC(=O)c1ccccc1)(Nc1sc2c(c1C#N)CCC(C(C)(C)C)C2)C(F)(F)F (configuration not stated)	112

Later entries.
SMILES	HCMV NEC inh	GIV-Gai inh
O=C(CSc1nc2ccccc2[nH]1)Nc1ccc(N2CCOCC2)c(Cl)c1	.	117
O=C(Nc1cc(Cl)ccc1Oc1ccc(Br)c2ccccc12)c1cc(Cl)cc(Br)c1O	.	104
CN(C)c1nc(OCC(F)(F)F)nc(N2CCN(C34CC5CC(CC(C5)C3)C4)CC2)n1	.	102
CCNc1nc(C(N)=O)c(NC(=O)c2cc(-c3ccccc3)nc3ccccc23)s1	.	102
COc1cc(/C=C2\C(=O)NC(=O)N(c3ccc(Br)c(C)c3)C2=O)cc(OC)c1O	.	112
CCCOC(=O)c1ccc(N2C(=O)C3C4c5ccccc5C(c5ccccc54)C3C2=O)cc1 (configuration not stated)	.	101
CCCC(=O)N1C2=C(C(=O)c3ccccc32)C(c2ccc(Cl)cc2)c2c1n(C)c(=O)n(C)c2=O (configuration not stated)	.	104
CCOC(=O)C1=NN(C(=O)c2cccc(Cl)c2)C(O)(c2ccc(Cl)cc2)C1 (configuration not stated)	.	117
OC(Cn1cnc(-c2ccccc2)c1-c1ccccc1)Cn1c2ccc(Cl)cc2c2cc(Cl)ccc21 (configuration not stated)	.	110
COc1cc2c(cc1NC(=O)CSc1nnc(C)s1)oc1ccccc12	.	105
O=C(NCCc1ccccc1)N1CCC(N2CCN(Cc3ccccc3)C(=O)C2=O)CC1	.	100
CC1=C(C(=O)OCC2CCCO2)C(c2coc3ccccc3c2=O)C2=C(CC(c3cccs3)CC2=O)N1 (configuration not stated)	.	104
COc1ccc(C2=NN3C(C2)c2cc(Cl)ccc2OC3c2cc(OC)c(OC)c(OC)c2)cc1 (configuration not stated)	.	99
Cc1nnc(SCC(=O)Nc2ccc(-c3nc4ccc(NC(=O)CSc5nnc(C)s5)cc4[nH]3)cc2)s1	.	113
CC1(C)Cc2c(sc3[nH]c(=S)[nH]c(=S)c23)CO1	.	115
CCOC(=O)C1=C(CSc2nc(C)cc(C)c2C(N)=O)OC(N)=C(C#N)C1c1cccs1 (configuration not stated)	.	109
CCOCCCNC(=O)N(C)Cc1nc2cc(C(=O)N3CCCC3)ccc2n1C	.	103
CN(Cc1ccc(Cl)cc1)Cc1cc(=O)n2nc(-c3ccccc3)sc2n1	.	102
CCc1ccc(-n2c(N)c(C(=O)Nc3ccccc3C)sc2=S)cc1	.	116
Cn1c(=O)c2c(nc(Br)n2CC(=O)c2ccc(Br)cc2)n(C)c1=O	.	100
N#Cc1c(N)nc(SCc2ccc(F)cc2)c(C#N)c1-c1cccs1	.	105
Cc1cc(Sc2ccc(NC(=O)Nc3ccc(Br)c(C)c3)cc2)n2ncnc2n1	.	104
N=C1/C(=C(/O)c2ccccc2)C(c2ccccc2)C2=C(CCCC2=O)N1c1ccccc1 (configuration not stated)	.	108
Cc1[nH]n(-c2ccc([N+](=O)[O-])cc2)c(=O)c1C=NCCN1CCN(C(=O)c2ccccc2)CC1	.	117
CCc1cc(Sc2ccccc2N)n2nc(C)nc2n1	.	103
CCOC(=O)C1=C(CSc2nc(CC)c(C)cc2C#N)OC(N)=C(C#N)C1c1ccccc1I (configuration not stated)	.	110
CCOC(=O)C1=C(N)Oc2cc(O)ccc2C1c1cccnc1 (configuration not stated)	.	108
CCNC(=O)c1nc(-c2ccc(S(=O)(=O)N(C)C)cc2)no1	.	106
Cc1ccc2nc(COc3cccc(NC(=O)Nc4ccccc4Cl)c3)cc(=O)n2c1	.	103
COc1ccccc1N1CCN(c2ncnc3c2cnn3-c2ccc(Cl)cc2)CC1	.	115
COc1ccc(OC)c(Nc2nc3nonc3nc2Nc2cccc(C)c2)c1	.	104
CCC(=O)Nc1cccc(-c2noc(C3CCCN(C(=O)c4ccccc4F)C3)n2)c1 (configuration not stated)	.	106
Cc1cc(C2CCCN2C(=O)c2ccco2)no1 (configuration not stated)	.	101
CCOC(=O)Nc1ccc2c(c1)N(C(=O)OCC)c1ccccc1CC2	.	113
CCCCCCNC(=O)c1ccc(N2CC3CC(C2)c2cccc(=O)n2C3)c(NS(=O)(=O)c2ccc(OC)cc2)c1 (configuration not stated)	.	107
CC(C)n1c(N2CCCN(C(=O)CCC3CCCC3)CC2)cc(=O)n(C(C)C)c1=O	.	101
CCC1(CC)Cc2ccccc2C(c2c(C)[nH]n(-c3ccccc3)c2=O)=N1	.	112
CCc1onc(C)c1C1CCCN1C(=O)NCC(=O)OC (configuration not stated)	.	101
O=C(CN1C2=NCCCN2c2ccccc21)c1cccc2ccccc12	.	119
CC(NC(=O)CCC(=O)N1Cc2cccn2-c2ccccc21)c1ccccc1 (configuration not stated)	.	104
CCn1c2ccccc2c2cc(C3N(c4ccccc4)CCN3c3ccccc3)ccc21	.	111
Nc1ccccc1-c1n[nH]c(=S)[nH]c1=O	.	107&104
COc1ccc(NC(=O)c2nc(-n3cnnc3)ccc2Br)c(OC)c1	.	108
COc1cc(C2N(c3ccc(C)cc3)CCN2c2ccc(C)cc2)cc(OC)c1OC	.	107
Cc1nc(N2CCOCC2)c2c(C)c(C(=O)Nc3cc(F)ccc3C)sc2n1	.	96

Individual results from the list:
COc1ccc(OC)c(Nc2nc3nonc3nc2Nc2cccc(C)c2)c1 – GIV-Gai inh: 104
Cc1nc(N2CCOCC2)c2c(C)c(C(=O)Nc3cc(F)ccc3C)sc2n1 – GIV-Gai inh: 96

Next part:
SMILES	HCMV NEC inh	GIV-Gai inh
O=C(Cn1ncc2c(c1=O)N(C1CC1)C(=O)CS2)N1CCCc2ccccc21	.	104
Cc1c(Br)c(C(F)(F)F)nn1CC(=O)Nc1sc2c(c1C#N)CCCC2	.	114
COc1ccc(-c2cc3cc(OC)c(OC)cc3c(Cc3cccc4ccccc34)n2)cc1OC	.	119
c1ccc(-c2ccc(-c3nc4ccc(-c5ccc6nc(-c7ccc(-c8ccccc8)cc7)c(-c7ccccc7)nc6c5)cc4nc3-c3ccccc3)cc2)cc1	.	105
CCc1ccc(S(=O)(=O)N(C(C)=O)c2ccc3oc(C)c(C(C)=O)c3c2)cc1	.	114
Cc1cccc(C)c1NC(=O)c1sc(=S)n(CCc2ccccc2)c1N	.	120
CCC(C)NC(=O)c1n[nH]c2c1CCCCCC2 (configuration not stated)	.	98
CCc1ccc(C2(C)CC(C)(C)N(C(=O)CN3C(=O)c4ccccc4C3=O)c3ccccc32)cc1 (configuration not stated)	.	99
COc1cccc(C2C(C#N)=C(N)OC3=C2C(=O)CC(c2ccco2)C3)c1OCc1ccc(F)cc1 (configuration not stated)	.	99
O=S(=O)(c1ccc2c(c1)CCCC2)N1CCCn2nc(-c3cccnc3)cc2C1	.	104
COC(=O)c1ccccc1NC(=O)c1sc2ncnc(N3CCN(c4ccccn4)CC3)c2c1C	.	97
CCCn1cnc2sc(C(=O)N3CCC(Cc4ccccc4)CC3)c(C)c2c1=O	.	121
NC(=Nc1ccccc1)C(F)(F)F	-4	.
O=C(Nc1ccccc1)C12CC1/C(=N\O)c1ccccc1O2 (configuration not stated)	9	.
Cc1cc2cc(CNS(C)(=O)=O)ccc2n1C	1	.
CC(NS(C)(=O)=O)C(c1cccs1)N1CCN(C)CC1 (configuration not stated)	-12	.
Cc1ccc(C2OC(CO)C(O)C(O)C2O)cc1Cc1ccc(-c2ccc(F)cc2)s1 (configuration not stated)	-12	.
COc1ccc2nc3oc(C(=O)Nc4ccc(F)cc4F)cc3cc2c1	0	.
Cc1c(C)c2c(c(C)c1O)CCC(C)(C(=O)O)O2 (configuration not stated)	-22	.
O=C1OC(NS(=O)(=O)c2ccc(Cl)cc2)c2ccccc21 (configuration not stated)	-3	.
COC(=O)Cn1c(=NC(C)=O)sc2cc(Br)ccc21	-14	.

Part of the list above in order of length of the SMILES, descending.
SMILES	HCMV NEC inh	GIV-Gai inh
Cc1ccc(C2OC(CO)C(O)C(O)C2O)cc1Cc1ccc(-c2ccc(F)cc2)s1 (configuration not stated)	-12	.
COc1ccc2nc3oc(C(=O)Nc4ccc(F)cc4F)cc3cc2c1	0	.
CC(NS(C)(=O)=O)C(c1cccs1)N1CCN(C)CC1 (configuration not stated)	-12	.
Cc1cc2cc(CNS(C)(=O)=O)ccc2n1C	1	.

Screening results (PubChem)

This is a subset, so the mix of outcomes need not match the whole.
